PPARg SRC-3 ag = PPARgamma-driven SRC-3 recruitment agonism | biochemical PPARgamma/SRC-3 coactivator recruitment assay | AID 731 | P37231 | activation, % at 8 µM | actives 0.26% (n = 200,000); in the data active means activation above about 23%;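 further: 0% = DMSO and 100% = reference agonist; some compounds past the cut are filed as inactive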
TR-FRET SRC-2 ct = counter-screen for PPARgamma SRC-2 recruitment agonists: TR-FRET artefact | actives 0.4% (n = 200,000) | active compounds read high | TR-FRET ratio at 8 µM; in the data active means TR-FRET ratio above about 2000; further: inactives centre near 1500; reference of the scale not given here
ROMK mod = modulators of human ROMK potassium channel. Tet-inducible ROMK, thallium flux fluorescence; actives lie on both sides. B-score at 10 µM. actives 2% (n = 130,000);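 active means signal ratio slope over the read window, or its plate-corrected B-score, at least 3 SD from the plate mean, either direction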;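 further: B-score of the F/F0 ratio slope over 7 to 12 s after thallium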
PPARg SRC2 recr = promotes SRC-2 coactivator recruitment by human PPARgamma | P37231 | PPARgamma LBD-SRC-2 recruitment, biochemical | activation, % at 8 µM | actives 0.34% (n = 200,000) | AID 1032; in the data active means activation above about 22%;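 further: 0% = vehicle and 100% = reference agonist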
PPARg SRC1 recr = agonists of human PPARgamma SRC-1 coactivator recruitment; P37231; PPARgamma-SRC-1 coactivator recruitment biochemical assay; activation, % at 8 µM; actives 0.41% (n = 200,000); in the data active means activation above about 19%;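 further: 0% = DMSO and 100% = reference agonist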
S1P3 antagonist = blocks the human S1P3 receptor. actives 0.27% (n = 170,000). AID 485. Q99500. inhibition, % at 4.98 µM. CHO S1P3 NFAT-BLA reporter, FRET fluorescence, antagonist mode;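 active means inhibition above the plate cutoff, the mean inhibition of test wells on that plate plus 3 SD, cut at about 28% in these data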;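 further: cells challenged with S1P at its EC80 of 0.8 µM; blue over green emission ratio from cleaved BLA substrate after 4 h stimulation; 0% = S1P-stimulated wells and 100% = unstimulated DMSO-only wells; some compounds past the cut are filed as inactive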
Target sequence (Q99500 whole entry, looked up): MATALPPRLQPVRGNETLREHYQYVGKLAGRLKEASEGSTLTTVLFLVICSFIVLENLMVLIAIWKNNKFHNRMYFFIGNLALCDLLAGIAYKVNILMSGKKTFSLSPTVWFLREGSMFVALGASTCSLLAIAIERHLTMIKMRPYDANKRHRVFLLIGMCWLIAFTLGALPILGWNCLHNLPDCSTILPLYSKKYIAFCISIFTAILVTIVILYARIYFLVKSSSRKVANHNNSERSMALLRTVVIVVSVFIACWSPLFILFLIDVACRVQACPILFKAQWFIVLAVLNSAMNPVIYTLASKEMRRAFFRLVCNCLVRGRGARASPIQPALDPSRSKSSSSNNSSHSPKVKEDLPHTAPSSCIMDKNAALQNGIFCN
* = called active by the depositor; nt = no result given; & = joins results of further samples. Only part of the results is shown, so the mix of outcomes need not match the whole.

SMILES	PPARg SRC-3 ag	TR-FRET SRC-2 ct	ROMK mod	PPARg SRC2 recr	PPARg SRC1 recr	S1P3 antagonist
N=C(N)c1ccc(OCCCCCOc2ccc(C(=N)N)cc2)cc1	-1	1579	nt	7	7	1
Nc1ccc2ncccc2c1	-11	1721	0.72	0	6	5
Cc1cccc(N2CCN(C(=O)c3cc4c(=O)n(C)c5ccccc5c4n3C)CC2C)c1 (configuration not stated)	-3	1597	nt	-1	-2	-1
c1ccc(-c2ccc(C(c3ccccc3)n3ccnc3)cc2)cc1 (configuration not stated)	-2&3	1451&1674	nt	-5&7	1&9	7&6
CCOc1ccc2nc(S(N)(=O)=O)sc2c1	2	1356	nt	3	0	-2
O=c1[nH]sc2ccccc12	0	1574	-4.5*	6	3	5
Cc1ncc([N+](=O)[O-])n1CCO	0&4	1572&1519	nt	4&2	6&-1	-15&-3
Cc1nn(CC(=O)O)c(C)c1Cl	1	1702	-0.46	12	4	nt
N#Cc1c(-c2cccc(Br)c2)cc(-c2ccco2)[nH]c1=O	3	1647	1.8	1	2	-17
Cn1cc2cccc([N+](=O)[O-])c2n1	5	1622	-0.77	1	1	0
Cc1nc(-c2ccccc2)c(-c2ccccc2)[nH]1	2	1513	-2.2	-4	1	nt
Cc1nc2ccc(S(=O)(=O)NCC(=O)NCCN3CCCCCC3)cc2s1	-3	1610	-0.34	-4	3	-21
CC(=O)c1nc2ccccc2n1S(=O)(=O)c1ccc(Cl)cc1	-9	1522	0.54	-4	-1	nt

Looked up above:
`N#Cc1c(-c2cccc(Br)c2)cc(-c2ccco2)[nH]c1=O` – PPARg SRC2 recr: 1
`Cc1nn(CC(=O)O)c(C)c1Cl` – PPARg SRC1 recr: 4
`Cc1cccc(N2CCN(C(=O)c3cc4c(=O)n(C)c5ccccc5c4n3C)CC2C)c1` (configuration not stated) – S1P3 antagonist: -1
`CCOc1ccc2nc(S(N)(=O)=O)sc2c1` – PPARg SRC1 recr: 0
`N=C(N)c1ccc(OCCCCCOc2ccc(C(=N)N)cc2)cc1` – PPARg SRC2 recr: 7

Part of the list above, with values under each structure:
Every second line gives: PPARg SRC-3 ag	TR-FRET SRC-2 ct	ROMK mod	PPARg SRC2 recr	PPARg SRC1 recr	S1P3 antagonist
> Cc1ncc([N+](=O)[O-])n1CCO
 : 0&4	1572&1519	nt	4&2	6&-1	-15&-3
> Cc1nn(CC(=O)O)c(C)c1Cl
 : 1	1702	-0.46	12	4	nt

4 entries drawn at random from the list so far:
SMILES	PPARg SRC-3 ag	TR-FRET SRC-2 ct	ROMK mod	PPARg SRC2 recr	PPARg SRC1 recr	S1P3 antagonist
Cc1nn(CC(=O)O)c(C)c1Cl	1	1702	-0.46	12	4	nt
Cc1nc2ccc(S(=O)(=O)NCC(=O)NCCN3CCCCCC3)cc2s1	-3	1610	-0.34	-4	3	-21
c1ccc(-c2ccc(C(c3ccccc3)n3ccnc3)cc2)cc1 (configuration not stated)	-2&3	1451&1674	nt	-5&7	1&9	7&6
CC(=O)c1nc2ccccc2n1S(=O)(=O)c1ccc(Cl)cc1	-9	1522	0.54	-4	-1	nt

High-throughput results deposited in PubChem BioAssay by several laboratories.
